NS1 function inh – blocks influenza NS1 protein function; S. cerevisiae slowed by influenza A NS1, growth recovery by OD600; Potency, µM (series often up to 46.1 µM), for inactives: at the highest dose activity, positive = more growth; 270,000 compounds, 0.4% hits; AID 2326; note: actives are rising curves; nearly all actives have a fitted effect of over 50% in size
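Growth recovery, yeast-based: influenza A NS1 expressed in S. cerevisiae causes slow growth, and suppressors are detected by OD600. The parent strain without NS1 is used as positive control.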
SARS PLP yeast – SARS-CoV PLP inhibition in yeast; S. cerevisiae expressing SARS-CoV PLpro, growth rescue; control for the full effect not named in the record; Potency, µM (series often up to 32.9 µM), without a hit: at the top dose activity, positive = growth rescue; 330,000 compounds, 0.19% hits; note: 0% is about no effect; nearly all actives have a fitted effect of over 55% in size; growth read by luminescence after 48 h
RE007 growth inh – less growth of the S. pombe RE007 Vpr strain | S. pombe RE007 Vpr strain, BacTiter-Glo ATP luminescence, 24 h; control for the full effect not named in the record | Potency, µM (top dose mostly 92.2 µM), for the others: at the highest dose activity change, negative = less growth | 360,000 compounds, 0.21% hits | AID 651644; active = well fitted falling curve with a large enough effect; inconclusive = small, poorly fitted or top-dose-only effect; inactive = no such curve, though single readings can be large or run the other way;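 note: % is set by controls: 0 for no effect and ±100 for the full control effect; nearly all actives have a fitted effect of over 50% in size; the assay follows cell death caused by Vpr and the record does not say whether a fall means rescue or toxicity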
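Fission yeast RE007 carrying one integrated HIV-1 vpr copy, seeded at OD 0.01 in PMG+AL medium with 23 nL pinned compound. Grown 24 h at 30 degrees; viability read by BacTiter-Glo luminescence after 5 min.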
Lassa entry inh – blocks Lassa virus binding to or entry into cells; 300,000 compounds, 1.2% hits; Lassa virus pseudotype entry inhibition, cell reporter; control for the full effect not named in the record; Potency, µM (top dose mostly 37.9 µM), inactives show at the highest dose activity change, negative = inhibition, hits mostly inhibitors; AID 540256; active means well fitted inhibition curve with a large enough effect; inconclusive means small, poorly fitted or top-dose-only effect, or effect the other way; inactive means flat fitted curve, though single readings scatter; tested in HEK293 cells; note: % is set by controls: 0 for no effect and ±100 for the full control effect; nearly all actives have a fitted effect of over 50% in size; luciferase read-out
MARV entry inh – blocks Marburg virus binding to or entry into cells; 300,000 compounds, 1.8% hits; Potency, µM (titrated, usually from 37.8 µM), without a hit: at the top dose activity change, negative = inhibition, actives largely listed as inhibitors; Marburg virus pseudotyped entry inhibition, cell reporter; control for the full effect not named in the record; about a third of the inactives were read at about 46 µM; active = well fitted inhibition curve with a large enough effect; inconclusive = small, poorly fitted or top-dose-only effect, or effect the other way; inactive = flat fitted curve, though single readings scatter; tested in HEK293 cells; about a fifth of its hits are not listed in these tables; note: % is set by controls: 0 for no effect and ±100 for the full control effect; luciferase read-out
StopGo reporter – FMDV 2A StopGo reporter, luciferase signal | human cells with a luciferase reporter of 2A StopGo recoding; control for the full effect not named in the record | Potency, µM (series often up to 57.9 µM), for inactives: top-dose signal change, negative = less light | 410,000 compounds, 1.2% hits | AID 1159524; active = well fitted falling curve with a large enough effect; inconclusive = small, poorly fitted or top-dose-only effect; inactive = no such curve, though single readings can be large or run the other way; tested in HEK293T cells; note: % is set by controls: 0 for no effect and ±100 for the full control effect; nearly all actives have a fitted effect of over 45% in size; luciferase light after 4 h
Cruzain inh Det – cruzain (T. cruzi) inhibition with detergent | P25779 | purified cruzain, Z-FR-AMC fluorescence, 0.01% Triton | Potency, µM, without a hit: max response, negative = inhibition, actives largely listed as inhibitors | 200,000 compounds, 0.43% hits; active = well fitted curve in the direction sought with a large enough effect; inconclusive = small, poorly fitted or top-dose-only effect, or another doubt; inactive = no such curve, though single readings can be large; an effect the other way counts as inactive or inconclusive;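 note: plate controls were neutral wells for no effect and buffer without enzyme for full effect; nearly all actives have a fitted effect of over 40% in size; top concentration of the series not given in the record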
Target sequence (P25779 123-467 limits assumed): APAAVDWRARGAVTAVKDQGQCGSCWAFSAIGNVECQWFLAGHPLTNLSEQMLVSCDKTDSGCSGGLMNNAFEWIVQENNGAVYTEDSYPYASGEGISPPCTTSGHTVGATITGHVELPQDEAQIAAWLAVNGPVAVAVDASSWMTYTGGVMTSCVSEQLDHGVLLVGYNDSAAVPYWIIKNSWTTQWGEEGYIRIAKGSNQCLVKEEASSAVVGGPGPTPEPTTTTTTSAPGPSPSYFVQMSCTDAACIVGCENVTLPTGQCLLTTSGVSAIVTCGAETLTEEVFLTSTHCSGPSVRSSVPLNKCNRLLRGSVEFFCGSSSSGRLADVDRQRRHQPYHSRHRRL
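15 min RT preincubation of 1.5 nM cruzain with compound, then 2 uM Z-FR-AMC added; kinetic AMC fluorescence, 60 s delta. Triton X-100 0.01%, pH 5.5.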
Cruzain inh noDet – cruzain (T. cruzi) inhibition without detergent. P25779. purified cruzain, Z-FR-AMC fluorescence, no detergent. Potency, µM, for the others: max response, negative = inhibition, most hits filed as inhibitors. 200,000 compounds, 2.3% hits. AID 1476; active = well fitted curve in the direction sought with a large enough effect; inconclusive = small, poorly fitted or top-dose-only effect, or another doubt; inactive = no such curve, though single readings can be large; an effect the other way counts as inactive or inconclusive;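 note: plate controls were enzyme without inhibitor for no effect and buffer without enzyme for full effect; nearly all actives have a fitted effect of over 40% in size; top concentration of the series not given in the record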
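Purified cruzain at 1.5 nM, pre-incubated 15 min with compound at room temperature in 100 mM sodium acetate pH 5.5, 5 mM DTT, 0.00005% Triton X-100. Reaction started with 2 uM Z-FR-AMC; AMC fluorescence increase over 60 s gives rate.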
An asterisk follows results filed as active; ? = inconclusive; · = not tested or not shown; & = joins results of further samples; [ ] = another dose, or the depositor's remark. Unless noted, calls come from the whole dose curve; as a rule, active means well fitted rising curve with a large enough effect; inconclusive means small, poorly fitted or top-dose-only effect; inactive means no such curve, though single readings can be large or run the other way. Potency is the fitted concentration of half-maximal effect.

SMILES | NS1 function inh | SARS PLP yeast | RE007 growth inh | Lassa entry inh | MARV entry inh | StopGo reporter | Cruzain inh Det | Cruzain inh noDet
O=c1c2c(-c3ccccc3)csc2nc2c3ccccc3c(NCCN3CCOCC3)nn12 | · | 18% | -12% | ? | ? | -10% | · | ·
Cc1cc(NC(=O)CSc2nc3ccccc3[nH]2)no1 | 7% | -1% | 5% | 0% | 20% | 12% | -0.4% | -27%
COc1ccccc1C(=O)O/N=C(\N)c1ccccc1Cl | -34% | -30% | -15% | ? | ? | 54%[activator] | 7.5% | -8%
O=C1C2C3CCC(C3)C2C(=O)N1Cc1ccccc1 (configuration not stated) | -2% | -6% | -1% | 20% | ? | -7% | -0.3% | -3%
O=[N+]([O-])c1ccc(O)c(-c2nn[nH]n2)c1 | 0% | 9% | -26% | 11% | ? | 29% | -0.1% | -3%
O=C(CSc1nc2c(c(=O)n1-c1ccc(Cl)cc1)SCC2)Nc1ccc2c(c1)OCCO2 | ? | -9% | -4% | · | · | -16% | -1.5% | ?
COc1ccccc1Nc1nc(N)nc(CSC(=S)N2CC(C)CC(C)C2)n1 (configuration not stated) | 10µM* | 65% | -5% | -3% | -30% | ? | 0.9% | -4%
Cn1nnc(NC(=O)c2ccco2)n1 | 3% | -4% | 10% | ? | 54% | 20% | 3.6% | 4%
CCn1c(CNC(=O)c2ccc(Cl)cc2)nnc1SCC(=O)N1CCOCC1 | 7% | 20% | -10% | · | · | 27% | · | ·
Cc1ccc(/C=N/NC(=O)c2nnn(-c3nonc3N)c2-c2cccs2)cc1 | 9% | 4% | 6% | · | · | 37%[activator] | · | ·
CC(C)c1ccc(C2NCc3ccccc3-n3cccc32)cc1 (configuration not stated) | -6% | -1% | -5% | · | · | -23% | · | ·
Cn1c(Sc2ccccc2Cl)c(C=O)c2ccccc21 | -2% | 8% | 1% | -25% | -6% | -5% | -9.7% | 3%

Next part; it opens with the 3 that closed the last part.
SMILES | NS1 function inh | SARS PLP yeast | RE007 growth inh | Lassa entry inh | MARV entry inh | StopGo reporter | Cruzain inh Det | Cruzain inh noDet
Cc1ccc(/C=N/NC(=O)c2nnn(-c3nonc3N)c2-c2cccs2)cc1 | 9% | 4% | 6% | · | · | 37%[activator] | · | ·
CC(C)c1ccc(C2NCc3ccccc3-n3cccc32)cc1 (configuration not stated) | -6% | -1% | -5% | · | · | -23% | · | ·
Cn1c(Sc2ccccc2Cl)c(C=O)c2ccccc21 | -2% | 8% | 1% | -25% | -6% | -5% | -9.7% | 3%
CCc1nnc(NC(=O)CSc2nnc(COc3ccccc3)n2Cc2ccccc2)s1 | 10% | -3% | -15% | 3% | 6%&9% | -19% | 4.0% | -10%
CSc1ccc(C2Nc3cccc4cccc(c34)N2)cc1 | -13% | -2% | 6% | · | · | 22% | · | ·
O=C(OC(C(=O)Nc1ccc(Cl)cc1C(F)(F)F)c1ccccc1)C1=COCCO1 (configuration not stated) | -4% | -10% | 7% | 4% | ? | 5% | -1.4% | 5%
CCCS(=O)(=O)NCc1cn2c(C)csc2n1 | ? | 4% | 0% | · | · | 37%[activator] | 3.1% | -14%
COc1ccc(C(=O)N2CC(=O)Nc3ccc(F)cc3C2c2ccccc2)cc1 (configuration not stated) | -1% | -1% | -1% | -10%[46.1 µM] | -27%[46.1 µM] | -2% | · | ·
CCOc1ccc(CNC(=O)CCn2nc(C)c3c(C)n(-c4ccccc4)nc3c2=O)cc1 | · | · | · | 13%[46.1 µM] | · | -2% | -3.5% | 3%
C=CCON/C(CCC)=C1\C(=O)C(C(=O)OC)C(C)(C)CC1=NC (configuration not stated) | · | 0% | 10% | -6% | 11%[46.1 µM] | -4% | · | ·
Cc1ccc(C)n1-c1ccc(-c2ccnc(N)n2)cc1 | · | 4% | -4% | ? | ? | ? | · | ·
O=S(=O)(c1ccc2ccccc2c1)N1CCN(C(=S)Nc2ccc(F)cc2)CC1 | 11µM* | 11% | 14% | ? | ? | -14% | -1.4% | ?
N#CC1=C(N)S[C@@H](C(=O)c2ccc(F)cc2)[C@@H]1c1cccs1 | 5% | 4% | 0% | -4% | 0% | ? | -20% | -24%
COc1ccccc1NC(=O)CSc1nnnn1Cc1ccccc1 | ? | -1% | 2% | -3% | 5% | · | 0.1% | 17%
Cc1cc(C(=O)NCc2ccccc2Br)no1 | -13% | 2% | -1% | 6% | 13% | 50%[activator] | -8.8% | -6%

Among those listed so far, these have fluorine.
SMILES | NS1 function inh | SARS PLP yeast | RE007 growth inh | Lassa entry inh | MARV entry inh | StopGo reporter | Cruzain inh Det | Cruzain inh noDet
O=C(OC(C(=O)Nc1ccc(Cl)cc1C(F)(F)F)c1ccccc1)C1=COCCO1 (configuration not stated) | -4% | -10% | 7% | 4% | ? | 5% | -1.4% | 5%
COc1ccc(C(=O)N2CC(=O)Nc3ccc(F)cc3C2c2ccccc2)cc1 (configuration not stated) | -1% | -1% | -1% | -10%[46.1 µM] | -27%[46.1 µM] | -2% | · | ·
O=S(=O)(c1ccc2ccccc2c1)N1CCN(C(=S)Nc2ccc(F)cc2)CC1 | 11µM* | 11% | 14% | ? | ? | -14% | -1.4% | ?
N#CC1=C(N)S[C@@H](C(=O)c2ccc(F)cc2)[C@@H]1c1cccs1 | 5% | 4% | 0% | -4% | 0% | ? | -20% | -24%

(cont.)
SMILES | NS1 function inh | SARS PLP yeast | RE007 growth inh | Lassa entry inh | MARV entry inh | StopGo reporter | Cruzain inh Det | Cruzain inh noDet
O=C(Cc1ccc(F)cc1)NCCc1csc(-c2cccc(F)c2)n1 | · | · | · | 2%[46.1 µM] | · | -12% | -4.1% | 4%
O=C(c1ccccc1)N1CCN(CC(O)COCC2CC=CCC2)CC1 (configuration not stated) | -10% | -4% | -11% | -10% | 30% | -12% | 2.4% | 7%
CC1CCN(CCC(=O)Nc2ccc(F)c(F)c2)CC1 | -7% | -3% | 0% | · | · | 8% | · | ·
CCN1C(=S)SC(=O)C1=C1C=C(C)N(CCOC)C(C)=C1 | -14% | 0% | · | · | 4% | · | -21% | -7%
COc1cccc(N(CC(=O)N/N=C(\C)c2cccs2)S(C)(=O)=O)c1 | -1% | 0% | 2% | -9% | -7% | -6% | -1.8% | -8%
Cc1cc(C)n(CC(O)CN(c2ccccc2)S(=O)(=O)c2ccc3ccccc3c2)n1 (configuration not stated) | -17% | -24% | -5% | -21% | -40% | 7% | -4.8% | -20%
CCOC(=O)N1CCN(CC(=O)Nc2cc3c(cc2C(C)=O)OCO3)CC1 | 3% | 5% | 14% | · | · | -14% | -6.4% | -14%
Cc1ccc(-n2c3c(c(O)c(-c4ccccc4)c2=O)C(=O)CC(C)(C)C3)cc1 | 17% | 3% | 13% | ? | 12% | -12% | -4.9% | -13%
Cc1ccc(S(=O)(=O)N(C)CCCC(=O)Nc2ccc(C)cc2C)cc1 | -7% | 7% | · | 2% | -7% | ? | -0.2% | 9%
CCOC(=O)c1nc(N)c(C(=O)OCC)[nH]1 | 12% | 5% | 4% | 4% | ? | -19% | -1.0% | -5%
CC(=O)Oc1ccc2c(=O)c(Oc3ccccc3[N+](=O)[O-])coc2c1 | -1% | -3% | 24% | 0% | ? | -6% | -3.3% | -10%
CC(C)c1ccc(C(=O)COC(=O)C(O)c2ccccc2)cc1 (configuration not stated) | · | 0% | -4% | -12% | ? | 45%[activator] | · | ·
CCOC(=O)c1c(NC(=S)Nc2ccccc2)sc2c1CC(C)(C)SC2 | 28% | 0% | 3% | -17% | -2%[46.1 µM] | 8% | -4.2% | 13µM*
CCCCCC(=O)Nc1ccc(C(=O)N/N=C/c2ccc([N+](=O)[O-])cc2)cc1 | -2% | 4% | -14% | ? | 0% | -3% | -1.5% | -23%
Cc1ccc(/C=N/NC(=O)c2nn(C)cc2Cl)cc1 | -8% | -4% | -10% | ? | -29% | 5% | -0.6% | 7%
O=C(CSc1nnc(-c2ccco2)n1-c1ccccc1)N1CCOCC1 | 6% | 1% | -2% | 3% | 6% | -1% | -3.1% | 5%
CCNC(=S)N=Nc1c(O)[nH]c2ccc([N+](=O)[O-])cc12 | · | 1% | 0% | -12% | -21%[46.1 µM] | -21% | · | ·
O=C(O)Cn1nc(-c2ccccc2)c2ccccc2c1=O | 11% | 4% | 56% | -17% | 11% | 2% | 7.0% | 1%
O=C(NCc1ccc2c(c1)OCO2)c1ccc(=O)[nH]c1 | 0% | 2% | 0% | -3% | -1% | -7% | 3.3% | -2%
Cc1cc(C)n(C/C=C/Cn2nc(C)cc2C)n1 | 8% | ? | 4% | 26%[14.3 µM] | -5% | 7% | 3.3% | 1%
Cc1cccc(NC(=O)CCS(=O)(=O)c2cc(Br)cc3c2N(C(=O)C2CC2)CC3)c1 | · | · | · | 8%[46.1 µM] | 18%[46.1 µM] | -8% | -3.8% | 2%
O=C(NCCCc1ccccc1)c1ccc(Br)o1 | -90% | -2% | -15% | 18% | ? | 36%[activator] | 1.1% | -6%
COCCN(C(=O)CCC(=O)Nc1nccs1)C(C(=O)NCCC(C)C)c1ccc(OC)cc1 (configuration not stated) | -2% | 0% | 1% | 14%[46.1 µM] | -5%[46.1 µM] | 4% | · | ·
O=S1(=O)N=C2CCCCCN2C(c2ccc(Br)cc2)N1 (configuration not stated) | · | 1% | -12% | 9%[46.1 µM] | 6%[46.1 µM] | -5% | · | ·
Cc1cc(NC2CCCCC2)nc2ccccc12 | -6% | -1% | -23% | · | · | 14% | · | ·

High-throughput results deposited in PubChem BioAssay by National Center for Advancing Translational Sciences (NCATS).

This is a random part of the collection. Share with any hit: about 4.5%.
